ClpP mod – qHTS Assay for Activators of ClpP. ATP-dependent Clp protease proteolytic subunit (Bacillus subtilis (strain 168)), P80244. purified B. subtilis ClpP, FRET peptide cleavage, 20 min. Potency, µM (titrated, usually from 57.5 µM), for the others: at the highest dose activity change, negative = active. hit rate 1.9% among 340,000. AID 651965, 2013; active = well fitted falling curve with a large enough effect; inconclusive = small, poorly fitted or top-dose-only effect; inactive = no such curve, though single readings can be large or run the other way; also: potency is read from the fitted curve at half-maximal effect; the source files actives as falling curves though it sought activators and does not explain the sign; nearly all actives have a fitted effect of over 65% in size; many hits overshoot -100%
Target sequence (P80244 whole entry, looked up): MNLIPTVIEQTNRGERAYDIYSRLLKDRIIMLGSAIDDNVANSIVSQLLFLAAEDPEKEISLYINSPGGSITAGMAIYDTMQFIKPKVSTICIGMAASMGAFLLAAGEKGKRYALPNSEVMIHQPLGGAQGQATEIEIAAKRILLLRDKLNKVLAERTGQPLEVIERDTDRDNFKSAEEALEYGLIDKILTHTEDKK
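Buffer: 100 mM Tris/HCl pH8, 100 mM KCl, 0.05% low protease BSA, 2.5% glycerol, 0.01% Tween-20. ClpP 10 microg/mL final; 20 min RT; delta FRET normalized to ADEP and DMSO controls.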
PINK1 expr mod – changes PINK1 expression | PINK1 immunofluorescence, high-content cytometry, 24 h | Potency, µM (titrated, usually from 76.6 µM), without a hit: top-dose activation (PINK1 increase), usual class: activators | hit rate 0.2% among 410,000; active = well fitted activation curve with a large enough effect; inconclusive = small, poorly fitted or top-dose-only effect; inactive = flat fitted curve, though single readings scatter; cell line not stated here;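 also: potency is read from the fitted curve at half-maximal effect; % of control where 0% means no effect; nearly all actives have a fitted effect of over 65% in size; a mitochondrial uncoupler was the plate control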
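A stable cell line was treated with compounds at 5 concentrations for 24 hours, with CCCP as control. PINK1 levels and mitochondrial localization were measured by immunofluorescence with mitochondrial, cell and nuclear markers after fixation, read by laser-scanning cytometry.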
D2 agonist – human D2 receptor agonism in beta-arrestin assay. P14416. DiscoveRx PathHunter D2 beta-arrestin, luminescence, 90 min; 100% = 57 uM dopamine signal. activation, % (test concentration not listed). hit rate 0.084% among 360,000; in the data active = activation above about 40%; inconclusive = about 15% to 40%; inactive = below about 15%; also: compound concentration not given in the record; the text of the record calls up to 30% inactive
Target sequence (P14416 whole entry, looked up): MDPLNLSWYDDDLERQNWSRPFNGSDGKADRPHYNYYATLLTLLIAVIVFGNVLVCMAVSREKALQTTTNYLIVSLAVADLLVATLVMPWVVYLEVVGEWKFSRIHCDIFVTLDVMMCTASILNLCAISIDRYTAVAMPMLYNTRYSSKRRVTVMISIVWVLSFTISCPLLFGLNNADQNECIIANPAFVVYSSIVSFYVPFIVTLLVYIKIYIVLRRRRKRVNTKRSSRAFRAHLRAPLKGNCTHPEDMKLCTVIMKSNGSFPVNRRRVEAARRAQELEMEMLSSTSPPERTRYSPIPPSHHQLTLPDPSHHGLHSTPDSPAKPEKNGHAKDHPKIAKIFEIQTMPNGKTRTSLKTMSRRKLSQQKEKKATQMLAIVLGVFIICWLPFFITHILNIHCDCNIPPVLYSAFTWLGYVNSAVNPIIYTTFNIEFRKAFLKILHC
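Agonist mode: compounds alone added to overnight-plated D2 PathHunter cells for 90 min at 37 C, with 57 uM final dopamine (EC100) defining full response. Beta-arrestin recruitment detected by chemiluminescent reagent, read after 1 h at ambient temperature.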
gsp antag – antagonizes gsp, the McCune-Albright syndrome mutation; hit rate 0.4% among 340,000; AID 624288; gsp-mutant cells, cAMP HTRF, 30 min; control for the full effect not named in the record; Potency, µM (highest dose often 76.9 µM), inactives show at the top dose activity change, negative = inhibition, most hits filed as inhibitors; active = falling curve of any shape with a large fitted effect; inconclusive = falling curve, mostly with a smaller effect; inactive = flat or rising curve; cell line not stated here;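 also: intracellular cAMP measured with PDE inhibitor Ro 20-1724 present during compound exposure; potency is read from the fitted curve at half-maximal effect; % is scaled to controls: 0 for no effect and ±100 for the full control effect; nearly all actives have a fitted effect of over 65% in size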
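HTRF cAMP measurement after 30 min RT detection following 30 min, 37C compound treatment alongside […] (added as 300 uM solution) in G418-selected cells seeded at 2000/well and grown 16–24 h.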
Menin-MLL FL inh – displaces fluorescein MLL peptide from human menin; Fluorescence polarization, fluorescein-MLL peptide displacement from menin; FP activity change, % at 61.4 µM; 290,000 tested, under 10 active; AID 1766; inconclusive = falling polarisation curve, or a change in total fluorescence; inactive = total fluorescence flat and polarisation flat or rising; no compound was filed as active; the % refers to the polarisation; negative = inhibition;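 also: % of control where 0% means no effect; inhibitors lower the polarisation; unlabelled MLL peptide was the positive control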
Sfp inh – inhibitors of Bacillus subtilis Sfp phosphopantetheinyl transferase; Potency, µM, for inactives: max response, negative = inhibition, usual class: inhibitors; Q9F4F7; AID 1490; hit rate 3.5% among 310,000; Biochemical Sfp PPTase activity, qHTS; active = well fitted inhibition curve with a large enough effect; inconclusive = small, poorly fitted or top-dose-only effect, or another doubt; inactive = no such curve, though single readings can be large or run the other way;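 also: the enzyme is Sfp with the accession as filed and its product quenches rhodamine fluorescence; potency is read from the fitted curve at half-maximal effect; 0% = enzyme reaction without inhibitor and -100% = no enzyme wells; top concentration of the series not given in the record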
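Fluorescence-quenching assay with 15 nM Sfp, 5 uM rhodamine-CoA and 12.5 uM BHQ-2-labelled ybbR peptide in pH 7.6 Hepes/MgCl2 buffer. Enzyme was pre-incubated with compound for 15 min at room temperature. Rate was taken from the 30-min fluorescence change (525/598 nm).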
gsp agonist – activates gsp, the McCune-Albright syndrome mutation | gsp mutant cells, cAMP HTRF, 30 min; control for the full effect not named in the record | Potency, µM (titrated, usually from 76.9 µM), inactives show top-dose activation (cAMP increase), actives largely listed as activators | hit rate 0.13% among 340,000 | AID 624287; active = well fitted activation curve with a large enough effect; inconclusive = small, poorly fitted or top-dose-only effect, or another doubt; inactive = no such curve, though single readings can be large or run the other way; cell line not stated here;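 also: phosphodiesterase inhibitor Ro 20-1724 added with compounds to block cAMP breakdown; potency is read from the fitted curve at half-maximal effect; nearly all actives have a fitted effect of over 60% in size; about a fifth of the inactives were tested at one dose only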
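Cells stably selected in G418 were plated at 2000/well, grown 16-24 hr, then given compounds in DMSO with the PDE inhibitor […] (300 uM solution added) for 30 min at 37C; cAMP was read by HTRF.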
* hit, by the source's call; ? = inconclusive; / = no result given; & = joins results of further samples; [ ] = dose if it differs, or a comment.

SMILES	ClpP mod	PINK1 expr mod	D2 agonist	gsp antag	Menin-MLL FL inh	Sfp inh	gsp agonist
COc1ccc(C(=O)c2nc3c(n2O)CCCCC3)cc1	0.5%	0.3%	-1.3	-0.5%	0.3	?	-38.1%
CCOC(=O)c1ccc(S(=O)(=O)N2CCN(C(=O)c3cccc(S(=O)(=O)N4CC(C)OC(C)C4)c3)CC2)cc1 (configuration not stated)	-0.6%	5.8%	-2.5	-15.3%	/	/	27.5%
CC(=O)c1cnc(Oc2cc(Cl)ccc2Cl)nc1C	-0.2%	-0.3%	3.5	-7.1%	-2.4	6.4%	23.8%
CC12CCC(C(=O)N(CC(O)CN3CCCCCC3)C1=O)C2(C)C (configuration not stated)	-0.3%	-1.6%	-1.3	17.8%	0.4	10.3%	12.7%
CN1CCN(C(=O)CCc2ccc(S(=O)(=O)NC3CCCCC3)cc2)CC1	/	2.3%	3.9	4.7%	-4.0	15.4%	-3.2%
CCN(CC)S(=O)(=O)c1ccc(NC(=O)c2cc(-c3cccs3)nc3ccccc23)cc1	28.2µM*	8.9%	-3.8	7.5%	-0.4	3.7%	21.0%
CC(C)COc1cccc(C(=O)Nc2ccc(N3CCOCC3)cc2N2CCOCC2)c1	3.8%	1.7%	4.4	?	/	/	-56.2%[inhibitor]
Nc1nc(-c2ccc(Cl)cc2)nn1C(=O)c1cccs1	-12.0%	-0.2%	-1.1	2.1%	-1.4	20.7%	4.7%
CCn1cc(Br)c(C(=O)NCc2ccco2)n1	-0.3%	-4.3%[38.3 µM]	4.7	0.1%	0.5	2.9%	?
O=C(CCCCCNC(=O)c1ccccc1)N/N=C/c1ccccc1O	-9.2%	2.5%	-0.2	4.8%	-0.2	14.1%	3.7%
COc1ccc(C(=O)OCC(=O)c2c(N)n(C)c(=O)n(C)c2=O)c(OC)c1OC	-1.3%	0.3%	4.7	0.1%	/	/	5.9%
Cc1ccc(S(=O)(=O)CCc2nnc(NC(=O)C3CCCCC3)s2)cc1	-1.1%	0.6%	1.4	-8.5%	1.6	13.2%	17.3%
COc1cnc(-c2ccccn2)nc1NC(C)C	/	2.1%	3.0	1.8%	5.4	7.08µM*	6.4%
CCOC(=O)c1ccc(NS(=O)(=O)c2ccc3c(c2)n(C)c(=O)n3C)cc1	-4.3%&0.1%	1.9%&-0.2%	-0.9	?	-0.4	-3.8%	?
Cc1cc(C)c(S(=O)(=O)Nc2nnc(C(C)C)s2)c(C)c1	-1.6%	-0.3%	-2.2	-12.9%	-1.2	20.9%	3.5%
Cc1c(Cl)cccc1N/C(SCC(=O)N1CCCCCC1)=C(/C#N)c1nc2ccccc2s1	-1.8%	28.2%	-3.4	-26.7%	4.9	12.5%	-5.0%
Cc1nc(C)c(CCNC(=O)c2ccccc2)s1	-2.2%	1.4%	-0.1	-8.3%	1.0	-6.8%	?
COC(=O)c1ccc(-c2ccc(/C=N/N3C(=O)C4C5C=CC(CC5)C4C3=O)o2)cc1 (configuration not stated)	/	2.6%	0.5	1.4%	8.0	15.2%	-4.1%[15.4 µM]
ClC1CCCCC1n1nnc2ccccc21 (configuration not stated)	?	-0.5%	5.6	2.6%	/	/	1.0%[15.4 µM]
Cc1nn(-c2ccccc2)c(N)c1C(O)(CSc1nccn1C)C(F)(F)F (configuration not stated)	-2.6%	0.1%	-0.5	19.7%	0.3	11.9%	0.0%
CCN(CC(=O)Nc1c(F)cccc1F)C(=O)CCCc1c[nH]c2ccccc12	-6.9%	1.6%	-2.2	-10.3%	-3.6	-0.8%	9.2%
COc1ccc(CCNC(=O)Cn2cnc3c(nnn3Cc3ccccc3F)c2=O)cc1OC	-0.7%	/	-1.0	2.5%	-3.3	3.4%	14.1%
Cc1c(C#N)c(O)[nH]c(=O)c1N=Nc1ccc(S(N)(=O)=O)cc1	/	1.5%	-5.7	-5.2%	21.9	8.3%	12.2%
O=C(Cc1ccccc1F)Nc1cccc2cccnc12	-1.6%	-1.4%	-4.8	6.8%	2.6	10.5%	-1.8%
COC(=O)[C@]1(Cc2ccccc2)N[C@H](CN(C)C(=O)C2CCCCC2)[C@@H]2C(=O)N(Cc3ccccc3)C(=O)[C@@H]21	3.1%	2.0%	-4.5	?	/	/	/
COc1ccc(C(C)C)cc1S(=O)(=O)n1cnc(C)c1	0.4%	15.4%[38.3 µM]	1.6	6.2%	-0.5	5.9%	5.1%
CC(=O)c1ccc(Nc2nc3ccccc3nc2NS(=O)(=O)c2cccs2)cc1	-4.9%	39.8µM*	-1.8	?	-0.7	31.3%[activator]	-0.1%
O=C(N1CCOCC1)C1(c2ccccc2)CCCCC1	-1.8%	-1.9%	-2.0	3.6%	1.0	15.8%	?
CCNC(=S)N(Cc1ccc2c(c1)OCO2)C1CC(=O)N(c2ccc(OC)cc2)C1=O (configuration not stated)	-1.0%	11.7%	3.6	-3.4%	-0.4	3.4%	?
CC(C)N=c1scc(-c2cccs2)n1/N=C/c1ccc(O)c(O)c1O	-1.5%	0.9%	?	-13.6%	8.4	11.2µM*	-25.5%
COCCSc1nnc(NC(=O)c2cc(C(=O)OC)cc([N+](=O)[O-])c2)s1	/	2.2%	-7.8	-106.3%	-0.2	7.9%	11.4%[15.4 µM]
CC(=O)Nc1ccc(-c2cc3ccccc3o2)cc1	14.1µM*	16.8%	0.6	-1.3%	/	1.6%	4.4%
COc1ccc(NC(=O)c2ccc(CNc3c(N4CCCC4)c(=O)c3=O)cc2)cc1Cl	/	3.5%	-2.3	-5.2%	3.6	-2.8%	-0.5%[15.4 µM]
COc1cc2[nH]c3c(=O)n(CCN4CCOCC4)cnc3c2cc1OC	/	0.7%	-0.4	-0.7%	1.2	5.9%	4.4%[15.4 µM]
COc1ccc(/C=C/C(=O)NC(=S)N2CCCC(C(N)=O)C2)cc1 (configuration not stated)	/	-0.5%	-5.6	-3.9%	/	-8.2%	?
CCCC(=O)C1=C(O)C(C(=O)OC)C(C)(C)CC1=Nc1ccc(OC)cc1 (configuration not stated)	/	-1.7%	-0.3	-4.2%	-1.6	12.2%	9.4%
COCCNC(=O)C(c1ccc(C)cc1)N(C(=O)CCC(=O)Nc1ccccn1)c1cccc(C)c1 (configuration not stated)	/	1.4%	-4.7	-1.6%	/	20.4%	0.7%
O=C(CSc1nnc(CNC(=O)c2ccc(F)cc2)o1)Nc1nccs1	-17.9%	-1.3%	-1.5	3.0%	-0.1	2.5%	12.5%
CCCOc1ccc(/C=C2\SC(=S)N(CC3CCCO3)C2=O)cc1 (configuration not stated)	-2.2%	0.5%	-1.0	-1.3%	13.0	-1.5%	5.3%
N#Cc1ccc(-c2nc3cc(Cl)ccc3c(=O)n2O)cc1	-1.8%	0.1%	-2.0	-10.2%	-14.5	-7.9%	18.9%
C/C(=N\NC(=O)CN1CCN(Cc2ccccc2)CC1)c1cccs1	0.5%	0.4%	-2.7	-12.3%	5.2	2.7%	-37.1%[inhibitor]
O=C(COC(=O)/C=C/c1ccc([N+](=O)[O-])cc1)NC(=O)NC1CCCCC1	1.5%	5.8%	2.8	10.3%	/	/	0.3%
O=C(COC(=O)C12CC3CC(CC(C3)C1)C2)Nc1ccccc1F	1.1%	?	-3.6	-6.4%	0.1	4.9%	-26.3%
O=C(Nc1ccc2oc(=O)ccc2c1)c1ccco1	28.2µM*	-2.8%	-2.3	0.6%	-2.4	6.5%	?
N#Cc1ccc(NN=Nc2ccccc2C#N)cc1	0.8%	0.2%	7.0	/	/	/	-20.3%
Cc1ccc(C(c2nnnn2C2CCCC2)N2c3ccccc3CC2C)cc1 (configuration not stated)	1.5%	3.6%	-2.1	1.0%	1.6	9.1%	-10.0%
O=C(CN1CCN(c2ccccc2F)CC1)NCc1ccc(Cl)cc1	/	4.2%	-2.6	1.2%	-1.7	8.6%	-25.2%
O=C(Nc1ccc(Cl)cc1)c1cccc(S(=O)(=O)Nc2ccccn2)c1	-4.3%	7.5%	-1.3	-15.9%	-2.0	-2.5%	-10.7%
c1ccc(Nc2nn[nH]n2)cc1	-0.4%	0.0%[38.3 µM]	2.6	0.4%	2.1	-29.3%	-15.8%
N#CCCSCc1ccc(OCC(=O)O)cc1	-0.9%	1.7%	-2.6	18.1%	-1.1	-4.0%	23.5%
COc1ccccc1C(=O)NC(CCSC)C(=O)NCC(c1ccccc1OC)N1CCCC1 (configuration not stated)	-1.7%	-5.0%	1.4	1.7%	/	/	10.2%
COc1ccc(NC(=O)C2Cc3c(-c4ccc5c(c4)OCO5)ccnc3O2)cn1 (configuration not stated)	5.4%	4.2%	-2.3	/	/	/	/
COc1ccc([C@H]2C[C@H](n3cc(-c4ccc(F)cc4)nn3)[C@@H](O)CN2CC2CCCCC2)cc1	-3.4%	6.1%	-7.5	/	/	/	-15.2%
Cc1ccc(C)c(NC(=O)CCC(=O)NNS(=O)(=O)c2ccc(Cl)cc2)c1	0.2%	0.3%	0.5	5.1%	/	/	?
CCCC1(c2ccccc2)NC(=O)N(CC(=O)Nc2ccc(N3CCOCC3)cc2)C1=O (configuration not stated)	0.2%	1.3%	-1.7	2.7%	/	/	?
O=C(NCc1ccccc1)c1ccccc1Br	/	-1.7%	-0.4	/	-2.5	18.4%	8.8%[15.4 µM]
CCC1(N(C(C)=O)c2ccc(OC)cc2)C(=O)c2ccccc2C1=O	1.4%	/	-2.2	?	0.3	8.2%	7.4%
CC(=O)c1cccc(NC(=O)CSc2nc(=O)n(Cc3ccccn3)c3c2CCC3)c1	/	0.1%	-0.6	-19.3%	/	/	16.8%[15.4 µM]
COc1ccc(NC(=O)CN(C)CC(=O)Nc2ccc(Cl)cc2F)cc1	0.1%	1.7%	-1.7	-4.3%	2.3	10.0%	-21.8%
COc1cc(C(=O)C(O)c2ccc(O)c(OC)c2)ccc1O (configuration not stated)	0.4%	0.7%	-0.9	-8.6%	/	/	12.9%[15.4 µM]
CCN(CC)S(=O)(=O)c1ccc(S(=O)(=O)N2CCC(C(=O)NC3CCN(Cc4ccccc4)CC3)CC2)cc1	/	0.4%	-3.4	6.2%	6.9	-4.2%	11.5%[15.4 µM]
CCC1=NN(C(=O)COc2ccccc2)C(O)(c2ccncc2)C1 (configuration not stated)	/	2.2%	-4.6	10.7%	-1.6	2.7%	-14.8%[15.4 µM]
COc1cccc(NC(=O)CN(Cc2ccccc2)S(C)(=O)=O)c1	-9.7%	-2.6%	-2.0	4.9%	2.3	4.8%	8.2%
